From PubChem BioAssay
TRPML1 blocker = inhibitors of human TRPML1 channel | Q9GZU1 | TRPML1-inducible cells, Ca2+ dye fluorescence, FDSS; stronger effect = lower value; inhibition of EC80 agonist-evoked calcium signal | activity change, negative = inhibition, % (test concentration not listed) | 390,000 tested, 0.02% active | AID 624415; in the data active means activity change below about -50%; inconclusive means about -30% to -50%; inactive means above about -30%;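 also: stimulus is agonist 54-4 at its EC80 concentration; % is scaled to controls: 0 for no effect and ±100 for the full control effect; compound concentration not given in the record; the text of the record puts the active cut at -80%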
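TRPML1-DL cells, Tet-induced overnight (~16 h, 37 °C) at 1,500 cells/well, were loaded with Ca8 no-wash dye plus quencher for 45-90 min at room temperature. Compounds were pinned during FDSS kinetic reading; agonist 54-4 at EC80 (4 uM final) then added.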
D2 ag = activates the human D2 dopamine receptor | P14416 | activation, % (no concentration beside the values) | 360,000 tested, 0.084% active | DiscoveRx PathHunter D2 beta-arrestin, luminescence, 90 min; 100% = 57 uM dopamine signal; in the data active = activation above about 40%; inconclusive = about 15% to 40%; inactive = below about 15%; also: compound concentration not given in the record; the text of the record calls up to 30% inactive
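Agonist mode: compounds alone added to overnight-plated D2 PathHunter cells for 90 min at 37 C, with 57 uM final dopamine (EC100) defining full response. Beta-arrestin recruitment detected by chemiluminescent reagent, read after 1 h at ambient temperature.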
PINK1 expr mod = modulators of PINK1 expression. PINK1 immunofluorescence, high-content cytometry, 24 h. Potency, µM (doses to about 76.6 µM), for inactives: at the top dose activation (PINK1 increase), hits mostly activators. 410,000 tested, 0.2% active; active = well fitted activation curve with a large enough effect; inconclusive = small, poorly fitted or top-dose-only effect; inactive = flat fitted curve, though single readings scatter; cell line not stated here;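 also: potency is read from the fitted curve at half-maximal effect; % of control where 0% means no effect; nearly all actives have a fitted effect of over 65% in size; a mitochondrial uncoupler was the plate control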
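Readout is PINK1 immunofluorescence, quantified alongside mitochondrial, cell and nuclear markers by laser-scanning microplate cytometry. Cells from a stable line were exposed to compound titrations (5 concentrations) for 24 hours, with CCCP controls.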
Six1-Eya2 inh = Six1/Eya2 interaction inhibition; Q15475+O00167; AlphaScreen GST-Six1/His-Eya2 binding, biochemical; stronger effect = lower value; control for the full effect not named in the record; activity change, % (test concentration not listed); 360,000 tested, 0.56% active; AID 651725; in the data active = activity change below about -65%; inconclusive = about -30% to -65%; inactive = above about -30%; also: % is scaled to controls: 0 for no effect and ±100 for the full control effect; compound concentration not given in the record
Target sequence (O00167 whole entry, looked up): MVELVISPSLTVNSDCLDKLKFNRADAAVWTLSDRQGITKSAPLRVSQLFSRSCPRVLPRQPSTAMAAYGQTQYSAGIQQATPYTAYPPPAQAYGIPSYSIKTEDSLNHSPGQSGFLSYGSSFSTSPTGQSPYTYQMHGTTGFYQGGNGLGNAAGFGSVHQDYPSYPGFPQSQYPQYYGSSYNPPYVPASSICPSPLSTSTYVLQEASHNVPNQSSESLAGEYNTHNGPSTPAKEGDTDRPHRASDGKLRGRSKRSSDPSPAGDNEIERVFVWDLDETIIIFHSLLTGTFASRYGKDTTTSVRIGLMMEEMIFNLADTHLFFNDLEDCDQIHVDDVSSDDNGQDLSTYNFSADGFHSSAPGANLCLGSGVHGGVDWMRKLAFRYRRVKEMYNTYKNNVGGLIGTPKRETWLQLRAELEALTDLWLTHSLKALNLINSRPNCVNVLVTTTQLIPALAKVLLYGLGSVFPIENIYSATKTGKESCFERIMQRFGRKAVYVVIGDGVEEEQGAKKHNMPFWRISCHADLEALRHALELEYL
Target sequence (Q15475 whole entry, looked up): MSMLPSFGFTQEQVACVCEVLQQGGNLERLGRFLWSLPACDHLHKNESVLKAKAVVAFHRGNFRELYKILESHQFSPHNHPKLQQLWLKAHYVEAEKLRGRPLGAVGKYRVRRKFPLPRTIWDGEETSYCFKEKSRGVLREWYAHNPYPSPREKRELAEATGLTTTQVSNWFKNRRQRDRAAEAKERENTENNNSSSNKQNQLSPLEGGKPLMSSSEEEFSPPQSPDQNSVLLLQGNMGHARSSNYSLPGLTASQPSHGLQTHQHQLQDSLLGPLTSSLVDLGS
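AlphaScreen with GST-Six1 and His-Eya2 (5X mix: 250 nM and 500 nM), glutathione donor and nickel acceptor beads; buffer 50 mM Tris pH 8.0, 300 mM NaCl, 1 mM TCEP; 1 h at 37 C in the dark.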
CtBP-E1A blk = CtBP/E1A binding inhibition; AlphaScreen GST-E1A/His-CtBP binding, 1536-well; stronger effect = lower value; control for the full effect not named in the record; activity change, % (test concentration not listed); 340,000 tested, 0.49% active; AID 651724; in the data active means activity change below about -65%; inconclusive means about -30% to -65%; inactive means above about -30%; also: % is scaled to controls: 0 for no effect and ±100 for the full control effect; compound concentration not given in the record
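AlphaScreen with 125 nM GST-E1A and 125 nM His-CtBP (5X stocks) in Tris pH 8.0, 300 mM NaCl, BSA, Tween 20, TCEP. Compounds preincubated 2 h at 37 deg C, then glutathione donor/nickel acceptor beads added for 1 h at 37 deg C in dark.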
TRPML1 agonist = agonists of human TRPML1 channel; Q9GZU1; TRPML1-expressing cells, Ca2+ dye fluorescence, FDSS; host cell line not named in the record; reference of the full effect not given here; activation, % (test concentration not listed); 410,000 tested, 0.12% active; AID 624414; in the data active = activation above about 50%; inconclusive = about 30% to 50%; inactive = below about 30%; also: 0% is about no effect; the text of the record puts the active cut at 80%
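Kinetic FDSS Ca2+ read in Tet-induced TRPML1-DL cells (ABD Ca8 dye plus quencher, 45-90 min RT loading): baseline, then compound, then 110 s agonist window; EC80 agonist 54-4 at 4uM final added afterwards for a 110 s antagonist window.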
Numbers without * were called inactive; ? = inconclusive; . = not tested or not shown; [ ] = dose if it differs, or a comment.

SMILES | TRPML1 blocker | D2 ag | PINK1 expr mod | Six1-Eya2 inh | CtBP-E1A blk | TRPML1 agonist
CNc1nc(Nc2ccc([N+](=O)[O-])cc2)nc(OCC(F)(F)F)n1 | 9 | 1.1 | 4.5% | 2 | 10 | -0.4
CN(C)c1nc(N)nc(CSc2nnnn2-c2cccc3ccccc23)n1 | 14 | 1.4 | -5.4%[38.3 µM] | -1 | -1 | 1.8
O=C(O)c1ccc2c(c1)N(Cc1ccc(F)cc1Cl)C(=O)c1ccccc1S2 | 4 | . | 0.2% | . | . | 1.8
Cn1c(=O)n(CC(=O)OCc2ccccc2)c(=O)c2c1nc1n2CCCN1C1CCCCC1 | -16 | -2.1 | 4.9% | 7 | 1 | 0.4
COc1cc2ccccc2cc1C(=O)N(CCN(C)C)c1nc2ccc(Br)cc2s1 | -24 | 0.3 | 2.5% | ? | -12 | 1.5
CCN(CC)c1ccc(C=NCCc2ccc(S(N)(=O)=O)cc2)cc1 | -7 | -1.5 | -0.3% | 9 | . | 1.0
O=C(NC1CCCCCCC1)c1c(Cl)cccc1Cl | 12 | -5.8 | 0.2% | 5 | . | -0.7
CC(Oc1ccccc1)C(=O)NC1=NCCS1 (configuration not stated) | 5 | 0.1 | 0.2% | 2 | 0 | 0.1
O=C(N/N=C/c1ccc(OC(F)F)cc1)C1=COCCO1 | 6 | -2.9 | -0.3% | -6 | 12 | 0.0
CCCNC(=S)NC1CC2CCCC(C1)N2CC(C)C (configuration not stated) | -14 | 0.9 | -4.0%[38.3 µM] | 1 | 20 | 0.7
O=C(Oc1cccc(OC(=O)c2ccco2)c1)c1ccco1 | . | 0.4 | 0.5% | -2 | . | .
O=C1C(O)CCN1C1CCCCC1 (configuration not stated) | 21 | -3.1 | 0.8% | -3 | 1 | 0.8
O=C(Cc1ccc(F)cc1)NC1CC(=O)N(c2ccccc2)C1 (configuration not stated) | -24 | . | 0.6% | . | . | 1.0
Cc1cccc(C)c1NC(=O)NCCc1c[nH]c2ccccc12 | 2 | . | 3.6% | . | . | 0.6
COc1cc(/C=N/Nc2nc(C)cc(=O)[nH]2)ccc1O | 55 | -3.3 | -0.4% | ? | ? | 0.0

Some of these compounds in order of their number in CtBP-E1A blk, falling:
Structure	CtBP-E1A blk
CCCNC(=S)NC1CC2CCCC(C1)N2CC(C)C (configuration not stated)	20
O=C(N/N=C/c1ccc(OC(F)F)cc1)C1=COCCO1	12
O=C1C(O)CCN1C1CCCCC1 (configuration not stated)	1

Continued.
SMILES | TRPML1 blocker | D2 ag | PINK1 expr mod | Six1-Eya2 inh | CtBP-E1A blk | TRPML1 agonist
O=C(CSc1ccccc1)NNC(=O)c1ccccc1O | 4 | -3.3 | -0.7% | -4 | -2 | -0.6
C#Cc1cccc(Nc2nc(NCc3ccccc3)nc3ccsc23)c1 | . | 8.2 | 11% | -15 | -6 | -0.6
O=C(NC1CC1)c1ccc2snnc2c1 | -10 | 0.0 | 0.1% | 8 | -3 | -0.3
Cc1nn(CC(=O)NC2CCCCC2)c(C)c1[N+](=O)[O-] | ? | -2.4 | -1.0% | 12 | 0 | -0.5
Cc1nc(C(C)NC(=O)c2ccc(OC3CCN(Cc4ccccn4)CC3)cc2)c(C)s1 (configuration not stated) | -20 | 1.3 | 1.2% | -6 | -1 | 0.9
CCC(C)N(C(=O)c1csnn1)C(C(=O)NC1CCCC1)c1ccccc1F (configuration not stated) | 2 | -1.9 | 0.1% | -3 | 0 | 3.3
COc1ccc(-n2c(C)nc3c(cnn3-c3ccc(C)c(C)c3)c2=O)cc1Cl | 45 | . | -0.1% | . | . | -0.3
COc1ccccc1-c1nc(N)n[nH]1 | -2 | -2.2 | -0.5% | 3 | 5 | 4.5
CCOC(=O)CC(=O)CSc1nc(C)nc2c1oc1ccccc12 | -16 | 0.8 | 0.7% | -5 | -6 | -0.2
Cc1c(O)c2ccccc2n(-c2ccccc2)c1=O | 4 | -7.8 | 0.9% | 1 | 5 | -0.2
CN(Cc1ccccc1)C(=O)c1cccc(NC(=O)C2CCCN(C(=O)OC(C)(C)C)C2)c1 (configuration not stated) | -11 | 0.7 | 0.2% | -2 | 5 | 1.5
CCCN1C(=O)C(Cc2nc3ccccc3c(=O)n2-c2ccc(OC)cc2)c2cc(C)ccc21 (configuration not stated) | 3 | . | 3.1% | . | . | 0.6
CCc1cccc2c(C(=S)N3CCCC3)c[nH]c12 | 1 | -3.2 | 2.7% | -9 | . | -0.1
CCCCn1c(N)c(N(CCOC)C(=O)c2cc(-c3ccc(F)cc3)nc3ccccc23)c(=O)[nH]c1=O | -1 | -5.6 | 8.3% | -7 | 1 | 0.2
CCCCOc1ccc(C(=O)Nc2ccc3oc(-c4cccnc4)nc3c2)cc1 | 31 | . | 0.6% | . | . | -0.2
Cc1ccsc1C(=O)NNC(=O)C1CCCCC1C(=O)O (configuration not stated) | 23 | -0.3 | -1.4% | 6 | 7 | 2.9
CC1CCC/C(=C\Nc2ccc3c(c2)OCO3)C1=O (configuration not stated) | 0 | -0.5 | 1.0% | -12 | -7 | -0.8
CCOc1ccc(C2N(c3ccc(F)cc3)C(=O)C3CCCN32)cc1OC (configuration not stated) | 8 | 0.3 | -0.7% | 9 | 1 | 0.3
COc1ccc(CNC(=O)[C@@H](NC(=O)C2CCN(C(=O)[C@@H](N)CC(C)C)CC2)C(C)C)cc1 | . | -2.7 | 2.4% | 8 | 4 | .
Cc1nc2ccccc2n1C1CC(=O)N(Cc2ccccc2)C1=O (configuration not stated) | -7 | -0.9 | . | 1 | 6 | -0.2
COc1ccc(N2C(=O)CC(N3CCN(c4ccc(Cl)cc4)CC3)C2=O)cc1 (configuration not stated) | 0 | 2.0 | 4.3% | -2 | -2 | -0.1
COC(=O)C(C)NC(=O)c1cn(-c2ccccc2OC)c(=O)c2ccccc12 (configuration not stated) | 35 | 0.1 | 1.6% | 7 | . | 0.6
Cc1ccnc(NC(=O)c2c(C)oc3ncn(CC(C)C)c(=O)c23)c1 | 21 | . | 2.6% | . | . | 0.4
Cc1cccc(C(=O)N2CCCC(c3nc(-c4ccc(F)cc4)no3)C2)c1 (configuration not stated) | 16 | 0.5 | 2.2% | -2 | 5 | 2.1
Cc1ccc(SCCC(=O)Nc2ccccc2C(=O)N2CCOCC2)cc1 | 10 | -7.2 | 2.2% | 3 | 11 | -0.4
COc1ccc(CCn2c(=N)c(C(=O)NC3CCCCC3)cc3c(=O)n4ccccc4nc32)cc1 | 4 | -0.5 | 6.3% | 3 | 8 | -0.3
COc1ccc(-c2cc(C(F)(F)F)nc(SCC(=O)N(C)Cc3ccccc3)n2)cc1 | 4 | . | 1.3% | . | . | 0.3
Cc1onc(-c2ccccc2Cl)c1C(=O)N1CCN=C1SCc1cccnc1 | 1 | 0.1 | 1.0% | 4 | 0 | 0.8
CCOC(=O)Cc1csc2nc(-c3ccccc3)nn12 | 9 | -8.6 | 2.0% | 2 | . | -0.8
Cc1cccc(OCC(=O)N/N=C/c2ccc3c(c2)OCO3)c1 | 16 | -3.7 | -1.6% | 22 | -10 | -0.1
Oc1c(C=C2N=c3ccccc3=N2)sc(=S)n1-c1ccccc1 | 10 | -0.6 | 0.8% | -1 | 3 | -0.2
N#CC(C(=O)O)=C1CCCC1 | 5 | -3.2 | -0.4% | 0 | 6 | -0.8
COc1ccccc1CNC(=O)CCCc1nnc2n(CC(C)C)c(=O)c3sccc3n12 | 4 | . | 2.9% | . | . | 1.4
CSc1ccc(Cn2c(C)c(C(=O)NCc3cccc(C(F)(F)F)c3)sc2=O)cc1 | . | 6.0 | 1.0% | -2 | -5 | 1.2
Cn1c(COc2ccc(Br)cc2)nnc1SC1CCc2ccccc2C1=O (configuration not stated) | -21 | 10 | -2.0% | 0 | -6 | 1.1
CCOc1ccc(C(=O)Nc2ccc3c(c2)N(C(C)=O)CCC3)cc1OCC | 6 | . | 0.4% | . | . | 1.3
COc1cccc(-c2nc(CS(=O)(=O)CC(=O)N3CCN(C)CC3)c(C)o2)c1 | 12 | -1.4 | 0.3% | 2 | -5 | 0.3
CCOC(=O)N1CCC(NC(=O)CCc2cn(C)c3ccccc23)CC1 | -4 | -1.1 | -0.2%[38.3 µM] | -3 | 6 | -0.4
C/C=C/c1ccc(OCCCN2C(=O)NC(C)(C)C2=O)c(OC)c1 | -8 | -2.6 | 25%[38.3 µM] | -1 | 7 | 0.4
Cc1ccsc1/C=N/N1CCN(C2c3ccccc3-c3ccccc32)CC1 | -12 | -3.5 | 3.5% | -21 | -18 | -0.3
O=C(NCC1CCCO1)c1cccc(S(=O)(=O)Nc2cccc(C(F)(F)F)c2)c1 (configuration not stated) | -8 | -0.8 | -2.6% | 5 | 3 | -0.3
CC1(c2nnc(-c3ccc(F)cc3)o2)CC(c2ccc(Cl)cc2)=NO1 (configuration not stated) | -2 | 1.4 | 0.5% | 9 | . | 0.9
CC(C)CNC(=O)/C(C#N)=C1\N=C(NC(=O)c2ccco2)c2ccccc21 | 18 | -8.0 | -0.6% | -5 | -5 | -0.9
COc1ccc(-c2nnn(CC(=O)N(C3CCCCC3)C(C)C(=O)NC3CCCC3)n2)cc1OC (configuration not stated) | -3 | -2.8 | 1.8%[38.3 µM] | -1 | 2 | -0.6
COC(=O)c1cc(S(=O)(=O)NCc2ccc(F)cc2)cn1C | -4 | -2.1 | 0.0% | 0 | 0 | 1.9
CC(C)(C)OC(=O)NCCCC[C@@H](C(=O)N1CCN(C(=O)OC(C)(C)C)CC1)n1cc(C(CO)NC(=O)OC(C)(C)C)nn1 (some centres not stated) | 2 | -0.1 | -0.8% | 2 | 5 | -0.3
CC(=O)Nc1ccc(OCc2ccc(S(=O)(=O)Cc3ccccc3)cc2)cc1 | -12 | 0.2 | 1.3% | 2 | . | 3.2

Full records, looked up by structure. Order of values: TRPML1 blocker	D2 ag	PINK1 expr mod	Six1-Eya2 inh	CtBP-E1A blk	TRPML1 agonist
Entry for COC(=O)c1cc(S(=O)(=O)NCc2ccc(F)cc2)cn1C → -4	-2.1	0.0%	0	0	1.9
Entry for Cn1c(COc2ccc(Br)cc2)nnc1SC1CCc2ccccc2C1=O (configuration not stated) → -21	10	-2.0%	0	-6	1.1
Entry for CCOC(=O)N1CCC(NC(=O)CCc2cn(C)c3ccccc23)CC1 → -4	-1.1	-0.2%[38.3 µM]	-3	6	-0.4
Entry for COc1ccc(-c2nnn(CC(=O)N(C3CCCCC3)C(C)C(=O)NC3CCCC3)n2)cc1OC (configuration not stated) → -3	-2.8	1.8%[38.3 µM]	-1	2	-0.6
